PABP polyA inh – PABP-poly(A) binding inhibition; P11940; PABP-poly(A) RNA binding, fluorescence polarization; inhibition, % at 35 µM; 290,000 tested, 1% active;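 active means 50% or more with normal probe brightness, or confirmed in later tests; inconclusive means above 50% with abnormal brightness, or retests that disagree; inactive means below 50% or failed in later tests; about a fifth of its hits are not listed in these tables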;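 further: calls also rest on retests at 20 µM and on dose response follow-up; controls were probe without protein and protein plus probe with vehicle; some compounds called inactive have numbers as strong as hits; many hits fall short of the cut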
Target sequence (P11940 whole entry, looked up): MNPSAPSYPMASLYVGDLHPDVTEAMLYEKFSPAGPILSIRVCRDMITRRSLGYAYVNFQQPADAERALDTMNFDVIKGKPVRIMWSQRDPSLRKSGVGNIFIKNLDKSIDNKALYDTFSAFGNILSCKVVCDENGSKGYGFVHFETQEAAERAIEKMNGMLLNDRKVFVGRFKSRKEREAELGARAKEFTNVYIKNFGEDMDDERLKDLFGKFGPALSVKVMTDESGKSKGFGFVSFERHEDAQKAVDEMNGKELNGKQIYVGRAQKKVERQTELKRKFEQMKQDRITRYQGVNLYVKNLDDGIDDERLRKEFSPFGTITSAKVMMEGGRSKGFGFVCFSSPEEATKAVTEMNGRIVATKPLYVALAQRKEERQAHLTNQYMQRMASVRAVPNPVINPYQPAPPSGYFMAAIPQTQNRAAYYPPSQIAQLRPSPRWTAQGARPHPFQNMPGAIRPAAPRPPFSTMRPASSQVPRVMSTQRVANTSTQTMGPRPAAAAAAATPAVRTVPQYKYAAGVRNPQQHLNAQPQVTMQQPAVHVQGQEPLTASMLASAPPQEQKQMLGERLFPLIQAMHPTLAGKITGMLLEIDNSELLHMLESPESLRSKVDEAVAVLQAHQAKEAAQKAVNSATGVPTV
CSC inhib – cancer stem cell inhibition; cancer stem cell-like cells viability, luminescence; inhibition, % at 7.5 µM; 300,000 tested, 1.1% active; AID 2717;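 active means mean at 75% or more and at least half the replicates too; inconclusive means mean and replicates disagree; tested in HMLE shEcad cells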;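 further: 0% = median of negative and 100% = median of positive control wells; the first replicate is given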
MT1-MMP act inh – blocks activation of human MT1-MMP; GFP/RFP ratio change, % at 20 µM; P50281; AID 651647; HT1080 RFP-PRO-GFP cells, GFP/RFP ratio fluorescence, overnight; percent of plate control window, DMSO zero; 360,000 tested, 0.061% active;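 active means GFP/RFP ratio change of at least 30% with cell ATP level not reduced by more than half and red fluorescence within 50% of control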; further: strong numbers were not always called active
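Material: RFP-PRO-GFP reporter HT1080 cells. Dosing: single-point 20 µM compound, 1% DMSO. Controls: DMSO and RFP-L50D-GFP cell wells. Timing: cells overnight before dosing, compound overnight, 37 °C, 5% CO2. Measure: GFP/RFP fluorescence ratio.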
UUG fidelity – alters start codon recognition fidelity in yeast | 350,000 tested, 0.13% active | activity score, % at 18.7 µM | S. cerevisiae UUG-firefly luciferase reporter, luminescence/redox ratio;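 active means replicate mean at a twofold rise or more, about +100% in these data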;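 further: firefly luciferase made from a UUG start codon reports start codon fidelity; reporter light over untreated wells divided by growth signal over untreated wells; some hits fall short of that in this replicate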
Rce1 inh – yeast Ras-converting enzyme inhibition; calls only; 290,000 tested, 0.27% active; Q03530; yeast membranes, quenched prenylated peptide cleavage fluorescence;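 active means fall in fluorescence gain of 50% or more versus controls, with final raw signal at or below 3038400; inconclusive means same 50% fall but final raw signal above 3038400; inactive means fall in fluorescence gain under 50%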;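 further: plate controls were neutral control wells for no effect and wells lacking membranes for full effect; tested at 10 µM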
HIV Env fusion – HIV envelope-mediated fusion inhibition; HeLa-JRFL Env/CEM21 cell fusion, luciferase; inhibition, % at 12.3 µM; 360,000 tested, 1.1% active; AID 651610;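 active means mean replicate inhibition score of at least 50 and every replicate individually at or above 50; inconclusive means only one of the two criteria met; inactive means mean below 50 and not all replicates reaching 50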;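 further: 0% = plate neutral controls and 100% = maraviroc near 300 nM; one replicate is shown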
eIF4H inh – inhibitors of RNA binding by human eIF4H. eIF4H fluorescence polarization binding assay. inhibition, % at 35 µM. AID 2012. 290,000 tested, 0.94% active;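 active means 50% or more with normal probe brightness, or confirmed in later tests; inconclusive means above 50% with abnormal brightness, or retests that disagree; inactive means below 50% or failed in later tests; about a fifth of its hits are not listed in these tables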;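 further: calls also rest on retests at 20 µM and on dose response follow-up; 0% = protein and probe with vehicle and 100% = probe without protein; strong numbers were not always called active; many hits fall short of the cut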
PABP polyA inh retest – further read-out of PABP polyA inh, marked with its call; inhibition, %; compound at 20 µM; confirmation repeats;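 mean of two retest wells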
MT1-MMP act inh RFP – recorded beside MT1-MMP act inh, whose call it bears; RFP signal change, %; measured here: RFP expression control read;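 0 = vehicle wells; hits needed this value within 50% of zero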
* = called active by the depositor; i = inactive; u = inconclusive; x = no result given. Only part of the results is shown; count on the stated rates, not on these rows.

SMILES | PABP polyA inh | CSC inhib | MT1-MMP act inh | MT1-MMP act inh RFP | UUG fidelity | Rce1 inh | HIV Env fusion | eIF4H inh | others
CCN1C(=O)c2cccc3c(NC(=O)c4ccc(OC)c(OC)c4)ccc1c23 | -0.8 | -0.6 | 9.0 | 3.2 | -17.5 | i | 20.9 | -5.0
CCCCC(=O)N=c1sc2cc([N+](=O)[O-])ccc2n1C | -16.9 | -8.1 | -6.7 | -6.3 | -14.1 | i | -20.4 | 1.3
O=C(NCc1ccc(C(F)(F)F)cc1)C1CC(c2ccc(C(F)(F)F)cc2)=NO1 (stereo unspecified) | x | 46.5 | 1.1 | -0.7 | -26.4 | i | -8.9 | x
CC1CN(C(=O)c2ccc(NS(=O)(=O)c3cccc(Cl)c3)cc2)CC(C)O1 (stereo unspecified) | -6.7 | x | -0.1 | -1.6 | -11.8 | i | -2.5 | -10.9
COc1cccc(NC(=O)CCc2nc(-c3cccs3)no2)c1 | 5.4 | -4.5 | 0.4 | 7.3 | -6.7 | i | x | 5.3
Cc1ccc(C(=O)NC2CCN(CC(=O)Nc3ccccc3Cl)CC2)cc1 | 8.9 | -5.0 | -1.9 | -0.2 | -1.1 | x | 0.8 | -10.9
O=C(CCS(=O)(=O)c1ccccc1)Nc1nccs1 | 10.9 | 8.5 | 3.4 | 7.1 | -12.3 | i | -4.7 | -12.2
CCOc1ccc(OCC)c(NC(=O)Cn2c(C)nc3ccccc3c2=O)c1 | -10.5 | 2.5 | 3.9 | -0.8 | x | i | 10.8 | -2.3
CSc1ccccc1OCc1cc(C(=O)NCCn2nc(C)cc2C)no1 | 0.0 | 11.7 | 1.7 | -0.4 | -1.3 | i | 1.3 | -8.1
Cc1ccc2nc(-c3cccc(Br)c3)c(Cc3ccccc3C(F)(F)F)n2c1 | x | x | -9.8 | -6.9 | -10.1 | x | -10.0 | x
NCCCC[C@@H]1NC(=O)c2cc([N+](=O)[O-])cc(F)c2NCCCC[C@@H](C(N)=O)NC(=O)CNC1=O | 15.8 | -5.5 | -1.2 | 3.9 | -4.8 | i | -6.0 | 7.3
Nc1nonc1-n1nnc(C(=O)N/N=C/c2ccccc2Br)c1CN1CCCC1 | -4.0 | x | -3.2 | -0.2 | -8.8 | i | 1.1 | -14.7
CCCc1nc2ccccc2c(C(=O)OCc2nnc(-c3cc(OC)c(OC)c(OC)c3)o2)c1CC | -0.8 | 69.0 | -8.9 | -14.2 | -19.9 | x | -26.8 | -2.7
Cc1nc(NC2CCCCC2)c2nnn(Cc3ccccc3Cl)c2n1 | 1.6 | 0.5 | 1.5 | -6.0 | -23.5 | i | -3.8 | 8.0
COc1ccccc1C(=O)Nc1ccncc1 | 5.5 | -4.8 | 1.2 | 0.9 | -13.1 | i | -259.9 | -6.6
CC(O)c1nc2ccc(C(=O)O)cc2[nH]1 (stereo unspecified) | 22.7 | -14.7 | -1.6 | 0.3 | -13.6 | i | 1.2 | -5.2
O=[N+]([O-])c1ccc2[nH]nc(-c3ccccc3)c2c1 | -1.7 | 8.6 | -0.9 | -5.7 | x | i | -19.0 | -7.5
O=C(O)C(Cc1ccccc1)n1cnnn1 (stereo unspecified) | 1.9 | 4.3 | -5.3 | 3.2 | -12.9 | i | -57.2 | -1.7
CCNC(=O)NC(=O)CSc1ccc(S(=O)(=O)N2CCOCC2)cn1 | x | -17.8 | 0.5 | 2.2 | -23.9 | x | 7.7 | x
COc1cc(F)cc(C2=CC(=O)C[C@H](c3ccc(F)cc3)C2)c1 | x | 28.0 | 0.6 | -1.2 | 11.1 | x | 16.5 | x
C[C@@]12C(=O)N(c3cccc(F)c3)C(=O)N1[C@@H]1c3ccccc3OC[C@@H]1[C@H]2c1ccccc1 | x | 5.3 | -7.7 | -12.9 | -9.8 | x | 34.0 | x
CC1=CC2=NC(=O)/C(=C/c3coc4ccc(Cl)cc4c3=O)C(=N)N2O1 | u | 11.7 | -105.1 | 5.4 | -6.6 | i | 6.7 | u
CCn1c(=O)c(CCC(=O)N2CCN(c3ccccn3)CC2)c(C)c2c(C)nn(-c3ccccc3)c21 | x | 4.4 | 3.2 | -5.8 | -8.7 | i | 2.9 | x
O=C(O)CSc1nc2c(cnn2-c2ccccc2)c(=O)n1-c1ccc(Br)cc1 | 8.2 | -2.5 | 4.0 | 5.5 | x | i | -5.2 | 0.2
Cc1ccc(C23CC4CC(CC(C(=O)NC(C(=O)O)C(C)C)(C4)C2)C3)cc1 (stereo unspecified) | 5.5 | -1.8 | 1.3 | -1.3 | -7.6 | i | 10.1 | -4.9
Remaining list, next part:
SMILES | PABP polyA inh | CSC inhib | MT1-MMP act inh | MT1-MMP act inh RFP | UUG fidelity | Rce1 inh | HIV Env fusion | eIF4H inh | others
COc1ccc(CN2C(=O)c3cccnc3C2=O)cc1S(=O)(=O)NC(C)C | -7.5 | -11.1 | 0.9 | 5.3 | -10.8 | i | 3.7 | -4.9
Cc1ccc(S(=O)(=O)Nc2ccc(NC(=O)Nc3cccc(C(F)(F)F)c3)cc2)cc1 | 4.1 | 96.1* | -3.8 | -21.0 | x | i | 20.4 | 1.9
CC(=O)Nc1ccc(NC(=O)CN2CCCC(C)C2)c(Cl)c1 (stereo unspecified) | 5.4 | -0.4 | 3.2 | 6.2 | -8.3 | i | x | 0.7
O=C1Nc2ccccc2SC(c2ccccc2)C1O (stereo unspecified) | 49.5* | -1.7 | -8.3 | 1.2 | -1.1 | i | -3.8 | u | PABP polyA inh retest=110.8*
Fc1ccccc1NC(=S)N(CCN1CCCCCC1)Cc1cccs1 | 0.5 | 4.1 | -0.3 | -1.7 | 3.4 | i | 9.8 | -1.3
COCCCNC(=O)Cn1nnc(-c2ccc(NC(=O)c3ccccc3OC)cc2)n1 | -7.1 | 2.2 | 4.9 | 2.9 | -18.0 | i | -59.7 | -4.0
CC(=O)c1ccc(OC(=O)CCc2nc3ccccc3s2)cc1 | 4.2 | -6.4 | -6.4 | 0.6 | x | i | 23.0 | 2.3
Cc1ccc(S(=O)(=O)N2CCOCC2)cc1C(=O)NCc1ccc(F)cc1 | 11.5 | -9.3 | -1.3 | -0.7 | -9.6 | i | 14.3 | -1.2
CCOC(=O)C1CCCN(Cc2ccccc2Cl)C1 (stereo unspecified) | 9.9 | -8.3 | 8.5 | 3.5 | x | i | -3.5 | -8.2
Cc1ccc2nc3c(cc(C(=O)NCCc4ccccc4)c(=N)n3CC3CCCO3)c(=O)n2c1 (stereo unspecified) | 83.3* | -1.8 | -2.7 | -3.2 | -2.7 | i | -15.5 | 94.7*
CCOC(=O)N1CCN(C(=O)c2cccc(NS(=O)(=O)c3ccc(F)c(F)c3)c2)CC1 | -2.0 | -2.5 | 1.3 | -3.0 | 8.7 | i | -69.5 | -7.4
CC1CC(C)CN(S(=O)(=O)c2ccc(C(=O)NN3CCOCC3)cc2)C1 (stereo unspecified) | 1.5 | -2.2 | x | x | x | i | -4.8 | -2.5
COc1ccc(CCNC(=O)CCc2ccc(S(=O)(=O)NC(C)C)cc2)cc1OC | 12.9 | -7.2 | -2.8 | -3.8 | x | i | 2.1 | -4.5
c1cncc(CSc2nnc3ccc(-c4ccncc4)nn23)c1 | 1.7 | -11.4 | -1.6 | -5.8 | 1.0 | i | 17.8 | -1.2
COc1ccc(NC(=O)c2nc3nccc(C)n3n2)cc1S(=O)(=O)N1CCOCC1 | x | -5.7 | 0.6 | 4.8 | -4.5 | x | 24.9 | x
O=C(O)c1nn(CC(=O)N2CCC(Cc3ccccc3)CC2)c(=O)c2ccccc12 | -9.2 | -12.6 | 1.9 | 5.0 | x | i | 8.3 | -5.7
C#CCn1c(=O)cc(C)c2ccccc21 | 1.9 | 11.2 | -2.6 | 6.0 | x | i | -9.7 | 1.5
C[C@H](CO)N1C[C@H](C)[C@H](CN(C)S(=O)(=O)c2ccccc2C#N)OCc2cnnn2CCCC1=O | x | x | -1.6 | 3.9 | -6.8 | x | 7.5 | x
Cc1ccc(NC(=O)N2CCCC2)cc1Cl | 4.6 | -6.2 | 0.4 | -3.5 | x | i | -19.2 | -6.7
CCS(=O)(=O)N1CCN(S(=O)(=O)c2ccc(F)cc2)CC1 | 8.5 | 9.7 | 5.9 | 2.7 | x | i | -48.7 | -5.9
CC1(C)Cn2c(nnc2-c2cccc(O)c2)S1 | -14.8 | -20.7 | 1.7 | 0.6 | -6.9 | i | 4.1 | -10.6
CCC(C)NC(=O)Cn1c(=O)n(-c2ccc(OC)cc2)c(=O)c2ccc(C(=O)NCc3ccc(C)cc3)cc21 (stereo unspecified) | -11.5 | x | 3.0 | 3.8 | -21.2 | i | -17.1 | -4.9
CCCNC(=O)Cn1c(=O)cnc2ccccc21 | -2.4 | x | -3.5 | -2.1 | x | i | 1.7 | -6.8
COc1ccccc1N1CCN(C(=O)c2cc3c(=O)n4cccc(C)c4nc3s2)CC1 | 12.6 | -21.4 | 2.7 | 5.4 | -7.0 | x | 16.8 | 4.5
COc1ccc(-c2ccc(OC)cc2C(=O)O)cc1 | 6.0 | -6.9 | 3.4 | 7.1 | 3.8 | i | -6.6 | 0.7
Cn1ncc(N=Cc2ccccc2O)c1C(=O)N1CCOCC1 | 9.9 | -13.2 | -4.5 | -4.2 | -9.1 | i | -61.1 | 0.8
Cc1ccccc1C(=O)NC(=S)Nc1ccc(Cc2ccncc2)cc1 | 3.7 | 30.3 | -0.7 | -2.8 | -11.7 | i | -4.1 | -8.2
O=C(O)c1ccc(-c2ccc(-c3ccccc3)cc2)s1 | 10.0 | 19.2 | -2.7 | 2.2 | -62.5 | i | x | 13.8

As a short view, part of the list above:
SMILES | PABP polyA inh | CSC inhib | MT1-MMP act inh | MT1-MMP act inh RFP | UUG fidelity | Rce1 inh | HIV Env fusion | eIF4H inh | others
COc1ccc(CCNC(=O)CCc2ccc(S(=O)(=O)NC(C)C)cc2)cc1OC | 12.9 | -7.2 | -2.8 | -3.8 | x | i | 2.1 | -4.5
c1cncc(CSc2nnc3ccc(-c4ccncc4)nn23)c1 | 1.7 | -11.4 | -1.6 | -5.8 | 1.0 | i | 17.8 | -1.2
COc1ccc(NC(=O)c2nc3nccc(C)n3n2)cc1S(=O)(=O)N1CCOCC1 | x | -5.7 | 0.6 | 4.8 | -4.5 | x | 24.9 | x
O=C(O)c1nn(CC(=O)N2CCC(Cc3ccccc3)CC2)c(=O)c2ccccc12 | -9.2 | -12.6 | 1.9 | 5.0 | x | i | 8.3 | -5.7
C#CCn1c(=O)cc(C)c2ccccc21 | 1.9 | 11.2 | -2.6 | 6.0 | x | i | -9.7 | 1.5
C[C@H](CO)N1C[C@H](C)[C@H](CN(C)S(=O)(=O)c2ccccc2C#N)OCc2cnnn2CCCC1=O | x | x | -1.6 | 3.9 | -6.8 | x | 7.5 | x
Cc1ccc(NC(=O)N2CCCC2)cc1Cl | 4.6 | -6.2 | 0.4 | -3.5 | x | i | -19.2 | -6.7
CCS(=O)(=O)N1CCN(S(=O)(=O)c2ccc(F)cc2)CC1 | 8.5 | 9.7 | 5.9 | 2.7 | x | i | -48.7 | -5.9
CC1(C)Cn2c(nnc2-c2cccc(O)c2)S1 | -14.8 | -20.7 | 1.7 | 0.6 | -6.9 | i | 4.1 | -10.6
CCC(C)NC(=O)Cn1c(=O)n(-c2ccc(OC)cc2)c(=O)c2ccc(C(=O)NCc3ccc(C)cc3)cc21 (stereo unspecified) | -11.5 | x | 3.0 | 3.8 | -21.2 | i | -17.1 | -4.9

Screens (PubChem BioAssay)
